HPGD block – blocks human HPGD enzyme activity | P15428 | hit rate 4.3% among 150,000 | Potency, µM, inactives show at the highest dose activity change, negative = inhibition, most hits filed as inhibitors | purified HPGD, NADH fluorescence kinetic, PGE2 substrate; active = well fitted inhibition curve with a large enough effect (not every such curve was filed as active); inconclusive = small, poorly fitted or top-dose-only effect, or another doubt; inactive = no such curve, though single readings can be large or run the other way;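 further: top concentration of the series not given in the record; plate controls included wells without enzyme; inactives centre near -10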
Target sequence (P15428 whole entry, looked up): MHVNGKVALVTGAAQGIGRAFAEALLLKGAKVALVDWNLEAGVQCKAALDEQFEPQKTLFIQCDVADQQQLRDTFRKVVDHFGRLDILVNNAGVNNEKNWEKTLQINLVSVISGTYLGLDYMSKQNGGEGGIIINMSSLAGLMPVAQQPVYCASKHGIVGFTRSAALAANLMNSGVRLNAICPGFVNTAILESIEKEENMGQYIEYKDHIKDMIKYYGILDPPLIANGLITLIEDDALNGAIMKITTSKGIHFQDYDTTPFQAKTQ
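20 nM HPGD preincubated 15 min at room temperature with compound in 50 mM Tris-HCl pH 8, 0.01% Tween 20. Started with 1 mM NAD+ and 30 uM prostaglandin E2; NADH fluorescence (360/450 nm) read 5 times over 30-s intervals, last minus first.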
* hit, by the source's call; u = inconclusive. On the % scale 0 is the no-effect control and ±100 the full control effect; potency means the concentration at half of the fitted maximal effect. Some of the compounds tested (hit frequency here may not be typical).

The opening 5 entries, ahead of the listing:
mol	HPGD block
CC(c1cc2ccccc2s1)N(O)C(N)=O (stereo unspecified)	-9%
CCOC(=O)c1sc2ncnc(OC)c2c1C	-29%
COc1ccccc1N1CCN(C(=O)c2cc(-c3cccc(Cl)c3)on2)CC1	-15%
CCOC(=O)C1=C(C)NC(C)=C(C(=O)OCC)C1C(=O)OCC(=O)NC(C)C	-16%
Cc1ccc(OCCNc2cc(N3CCN(CCO)CC3)ccc2[N+](=O)[O-])cc1C	35µM*

This part in full (from the top)
mol	HPGD block
CC(c1cc2ccccc2s1)N(O)C(N)=O (stereo unspecified)	-9%
CCOC(=O)c1sc2ncnc(OC)c2c1C	-29%
COc1ccccc1N1CCN(C(=O)c2cc(-c3cccc(Cl)c3)on2)CC1	-15%
CCOC(=O)C1=C(C)NC(C)=C(C(=O)OCC)C1C(=O)OCC(=O)NC(C)C	-16%
Cc1ccc(OCCNc2cc(N3CCN(CCO)CC3)ccc2[N+](=O)[O-])cc1C	35µM*
Cc1ccccc1C(C(=O)NCc1ccco1)N(CC1CCCO1)C(=O)Cn1nnc2ccccc21 (stereo unspecified)	-9%
Cc1cc(N=Cc2c(CO)cnc(C)c2O)c(N=Cc2c(CO)cnc(C)c2O)cc1C.[Zn]	-10%
O=c1cc(-c2ccccc2)oc2cc(O)c(O)cc12	18µM*
Cc1cccc(Nc2nc(NCc3ccco3)nc(N3CCOCC3)n2)c1	-6%
COc1ccc(Oc2coc3c(CN4CCOCC4)c(O)ccc3c2=O)cc1	u
Cc1ccc(S(=O)(=O)C(C)C(=O)c2ccc3c(c2)OCCO3)cc1 (stereo unspecified)	u
Oc1ccc(Br)cc1-c1ccn[nH]1	-21%
CCOC(=O)C(=O)C1=C(N2CCOCC2)/C(=C\c2ccc(F)cc2)CC1	-12%
COCCNC(=O)c1onc(CSc2cccc(Cl)c2)c1C(=O)O	-22%
COC(=O)c1[nH]c2cc(C)ccc2c1NC(=O)CN1CCN(C(=O)c2ccco2)CC1	-15%
Cc1cc(NC(=O)CSc2nc(-c3ccco3)cc(C(F)(F)F)n2)no1	-25%
COc1ccc(NC(=O)COC(=O)C2CCC(C(C)(C)C)CC2)c([N+](=O)[O-])c1 (stereo unspecified)	-12%
C=C(C)CC1N(c2cccc(OC)c2)C(=O)[C@@H]2C(C(=O)O)[C@H]3C=C[C@@]12O3 (stereo partly specified)	-1%
Cc1cc(NC(=O)c2nn3cccnc3c2Cl)no1	-10%
Cc1cccc(OCc2nnc(NC(=O)c3cccs3)s2)c1	-21%

2 entries from above, with each value named.
Cc1cccc(Nc2nc(NCc3ccco3)nc(N3CCOCC3)n2)c1
  HPGD block: -6%

CCOC(=O)C1=C(C)NC(C)=C(C(=O)OCC)C1C(=O)OCC(=O)NC(C)C
  HPGD block: -16%

(continued)
mol	HPGD block
O=C(NCc1ccco1)/C(=C\c1ccco1)NC(=O)c1ccc(Br)o1	u
CCC(=O)Nc1ccc(NC(=S)NC(=O)/C=C/c2ccccc2)cc1	-20%
COC(=O)N1CCN(c2ccc(Cl)c(Cl)c2)CC1	-20%
Cc1nc2ccccc2c2oc(C(=O)NCc3ccccn3)cc12	-8%
CCc1nnc(NC(=O)CSc2nnc(CNc3ccc(F)cc3)n2C2CCCCC2)s1	-9%
CN(C)c1ccc(N2CN=C3SCC(=O)N3C2)cc1	-16%
CCS(=O)(=O)N1N=C(c2ccccc2)CC1c1ccc2nccnc2c1 (stereo unspecified)	-21%
C#CCOCCOCCOCCNc1nc(N2CCN(C(=O)[C@H]([C@@H](C)CC)n3cc(CCC(=O)O)nn3)CC2)nc(N2CCN(C(=O)[C@H](C)n3cc(CCCN=C(N)N)nn3)CC2)n1	0%
Cc1ccc(Cn2cnc3c(nnn3Cc3ccc(Cl)cc3)c2=O)cc1	-6%
CCN(CCNC(=O)CN(C)S(=O)(=O)c1cccc2nsnc12)c1ccccc1	-12%
O=C(CSc1nnc(-c2ccncc2)n1-c1ccc(Cl)cc1)N1CCOCC1	-14%
O=C(NNC1=NCCC1)c1ccc(Br)cc1	-3%
C/C(CC(C)C)=N\NC(=O)Nc1ccccc1	-20%
O=C(NCc1cn(-c2ccccc2)nc1-c1ccc(F)cc1)c1cccc([N+](=O)[O-])c1	-6%
Cc1c(NC(=O)c2ccc(Br)o2)c(=O)n(-c2ccccc2)n1C	-15%
COc1ccc(C(C(=O)NC2CCCCC2)N(C(=O)CCl)c2ccc(C)cc2)cc1 (stereo unspecified)	-5%
O=C(CSCc1ccccc1)Nc1ccc(S(=O)(=O)N2CCOCC2)cc1	-13%
COc1cc(-c2nc(-c3ccc4c(c3)-c3ccccc3S4(=O)=O)c(-c3ccccc3)[nH]2)cc(OC)c1O	-16%
C=CCOc1cccc(C2C(C(=O)c3ccco3)=C(O)C(=O)N2CCN(CC)CC)c1 (stereo unspecified)	-9%
CCN(CC)S(=O)(=O)c1cccc(C(=O)N[C@H](C(=O)Nc2nc3ccccc3s2)C(C)C)c1	1%
CCC1(C)Cc2c(sc3nnn(CC(=O)Nc4cccc5ccccc45)c(=O)c23)CO1 (stereo unspecified)	-3%
O=C1NC2(NN1c1ccccc1)C1CC3CC(C1)CC2C3 (stereo unspecified)	-2%
O=C(Cn1cc2c(n1)CCCC2)NCC1CCCO1 (stereo unspecified)	-13%
CCN(CC)CCCC(C)Nc1nc(C)cc(Nc2ccc3nc(C)cc(N)c3c2)n1 (stereo unspecified)	-8%
Cc1ccccc1C1CC(c2ccccc2OC(F)F)Nc2ncnn21 (stereo unspecified)	-2%
CCCCc1ccc2nc(NC(=O)OC)[nH]c2c1	-11%
CC(C)(C)c1ccc(-c2nnc(NC(=O)c3ccccc3)s2)cc1	-25%
O=C(CCS(=O)(=O)c1cccc2nsnc12)NCc1ccccc1	-6%
COc1ccc(C2C(C(=O)c3cc4cccc(OC)c4o3)=C(O)C(=O)N2CCCN(C)C)cc1OC (stereo unspecified)	-7%
O=C(Cc1ccccc1)Nc1ccc(SC(F)F)cc1	-13%
CC(C)N1CC(C(=O)Nc2ccc(Br)c(Cl)c2)CC1=O (stereo unspecified)	-4%
CC(CCc1ccccc1)NS(=O)(=O)c1ccccc1 (stereo unspecified)	-11%
CC(C)Cn1c(-c2ccccc2)nc(=S)c2c1CCCC2	-5%
O=C(Nc1ccccc1C(=O)N1CCCC1)c1cccc(S(=O)(=O)N2CCCCCC2)c1	1%
Cn1cccc1CNCc1ccccc1Cl	-1%
CCC(c1nnnn1Cc1ccc2c(c1)OCO2)N1CCN(c2ccc(F)cc2)CC1 (stereo unspecified)	-8%
Cc1[nH]n(C(C)(C)C)c(=O)c1Sc1ccccc1	-14%
Cc1nc(N2CCOCC2)c2nc(-c3ccccc3)n(CCCN3CCCCC3C)c2n1 (stereo unspecified)	u
Cc1ccc(NC(=S)NCCO)c(C)c1	-3%
CCCCS(=O)(=O)N1C2=NC(C(=O)OC)=C(C(=O)OC)[C@@H]3N(C)c4ccc(OC)cc4[C@]23C[C@H]1C(=O)OC	-6%
COc1ccc(NCC(=O)N/N=C/C=C\c2ccccc2)cc1	-22%
O=C(Nc1cnn(Cc2ccc(Cl)c(Cl)c2)c1)C12CC3CC(CC(C3)C1)C2	0%
Oc1ccccc1-c1nnc(COc2ccccc2)o1	u
CCOc1cc(/C=N/NC(=O)COc2cccc(C)c2)ccc1OC(=O)c1cccs1	-17%
C/C(=N\NC(=O)c1ccccc1)c1cc2cc([N+](=O)[O-])ccc2oc1=O	25µM*
Cn1[nH]c(=O)c(Cl)c(Cl)c1=O	0%
Cc1n[nH]c(C)c1S(=O)(=O)N1CCCC(C(=O)Nc2nccs2)C1 (stereo unspecified)	4%
CCCCCCCC(=O)OCC(COC(=O)CCCCCCC)OC(=O)CCCCCCC	-6%
CC(=O)Nc1cccc(NC(=O)C2CCCN2C(=O)Nc2ccc(C)cc2)c1 (stereo unspecified)	1%
CC(C)N1C(=O)S/C(=C/c2cccnc2)C1=O	1%
Cc1nnc(NC(=O)CSc2nnc(Cc3cccn3C)n2C)s1	-9%
Cc1ccc(C(=O)/C=C/Nc2cccc(O)c2)cc1	-25%
Cc1ccc(N2CCN(CC(O)COC3CCCCC3)CC2)cc1 (stereo unspecified)	-6%
O=C(CC(=O)NC1CCCCC1)N/N=C/c1ccccc1Cl	-18%
O=S(=O)(c1ccc(NC2CCCCC2)cc1)N1CCOCC1	-3%
COc1ccc2cc(/C=N/NC(=O)c3ccc(CN(c4ccc(C)c(C)c4)S(C)(=O)=O)cc3)c(Cl)nc2c1	u
CC(=O)NCCc1nc2ccccc2n1Cc1ccccc1	-7%
COc1ccc2c(Cc3c4ccccc4cc4ccccc34)cncc2c1O	-8%
c1ccc2c(c1)nc1n2CN(Cc2ccc3c(c2)OCO3)CN1	-5%
COc1ccc(OCC(=O)N2CC3(C)CC2CC(C)(C)C3)cc1 (stereo unspecified)	-2%

More entries
mol	HPGD block
CC(=O)c1c(C)n(-c2ccc(N(C)C)cc2)c2ccc(OCC(N)=O)cc12	-7%
COc1ccc(Nc2nnc(C)c(=O)[nH]2)cc1	-7%
CC(C)CCNC(=O)CN(CC1CCCO1)C(=O)CCC(=O)Nc1ccccn1 (stereo unspecified)	-12%
CCOc1ccccc1OCC(=O)N/N=C(\C)Cc1ccc(OC)cc1	-17%
CCc1nccn1-c1cc(C(C)(C)C)nc2c(-c3ccc(Cl)cc3)cnn12	-10%
CN(C)C(=O)N1CCCC(C(=O)NCc2ccccc2Cl)C1 (stereo unspecified)	-1%
Cc1nc2c(C(=O)NCc3cccs3)cnn2c(C)c1Cc1ccc(F)cc1	u
Cc1cc(C)cc(NS(=O)(=O)c2ccc3c(c2)c(=O)n(C)c(=O)n3C)c1	2%
CNC(=O)CN1C(=O)CSc2ncccc21	-12%
O=C(COc1ccccc1)NC(=S)N1CCc2ccccc21	-23%
Cc1ccccc1N/C(=C(/C(Cl)=C(Cl)Cl)[N+](=O)[O-])n1nnc2ccccc21	-15%
CCCCCCOc1ccc(C(=O)n2cnc(N)n2)cc1	-18%
Cc1ccc(OCCN2CCCCCC2)c(C)c1	-9%
NC(=O)C1CCN(CC(=O)N2c3ccccc3CCc3ccccc32)CC1	-6%
CCOC(=O)c1c(C=O)c(C)n(Cc2ccc(Cl)cc2)c1C	-12%
Cc1nc(-c2c(C(F)(F)F)noc2-c2ccc(O)cc2O)cs1	-4%
Cc1ccc(CNC(=O)Cc2csc(Nc3nc(=S)[nH]c4ccccc34)n2)cc1	-21%
CCC(=O)Nc1ccc(N2CCCCC2)cc1	-13%
Cc1ccc(S(=O)(=O)NCC23C=CC(O2)C2C(=O)N(c4ccccc4)C(=O)C23)cc1 (stereo unspecified)	u
Cc1ccc(OCC(=O)NC(=S)Nc2ccc(Br)c(C)n2)cc1	-15%
CC(C)CN(CC(C)C)CC(O)COc1ccccc1Br (stereo unspecified)	-17%
CCc1cc2c3c(c1)C(C)CC(C)(C)N3C(=O)C2=O (stereo unspecified)	-11%
O=C(NCCCN1CCC(Cc2ccccc2)CC1)C1CC(=O)N(C2CCCC2)C1 (stereo unspecified)	6%
O=C(Nc1ccc(Cl)cc1)c1ccc2c(c1)OCO2	-13%
Cc1ccc(C(=O)/C=C/c2ccco2)c(O)c1	-17%
CCCc1[nH]nc2c1C(c1ccc(OC(=O)N3CCOCC3)c(OC)c1)C(C#N)=C(N)O2 (stereo unspecified)	-7%
CSc1nc(Cl)c(Cc2ccc(OC(C)C)cc2)c(N2CCOCC2)n1	-10%
CCN1CCN(c2nc(-c3cccs3)nc3ccccc23)CC1	u
CCn1c(SCc2nc3ccccc3nc2C)nnc1-c1cccs1	-7%
c1ccc(-c2ccc(N3CC4(CCNCC4)C3)cc2)cc1	u
O=C(COC(=O)C12CC3CC(CC(O)(C3)C1)C2)N1CCN(S(=O)(=O)c2ccc(Cl)cc2)CC1	2%
COc1ccccc1OCC(=O)Nn1c(=S)[nH]c2ncccc2c1=O	-29%
COC(=O)CC1=C(C(=O)OC)C(c2cc(OC)c(OC)cc2OC)C(C#N)=C(N)O1 (stereo unspecified)	-18%
C/C(=N/NS(=O)(=O)c1ccc(C)cc1)c1cccc(NC(=O)c2cccc(Cl)c2)c1	-12%
CCOC(=O)c1c(C)n(C)c2ccc(OCC(O)Cn3nc(C)cc3C)cc12 (stereo unspecified)	-7%
COc1ccc(-c2nn(-c3ccccc3)cc2/C=N/NC(=O)c2ccc3c(c2)OCO3)cc1	u
Cc1ccc(NC(=O)NC(=O)N(c2ccccc2)S(C)(=O)=O)cc1	u
COC(=O)C1CCN(C(=O)CN2C(=O)NC(CCc3ccccc3)C2=O)CC1 (stereo unspecified)	-3%
CC1=NN=C(c2ccccc2)C(c2c[nH]c3ccccc23)N1O (stereo unspecified)	-5%
CCOc1cc(C(=O)Nc2cnccn2)cc(OCC)c1OCC	-14%
O=C(N/N=C/c1cccc(O)c1)c1ccc(COc2ccc3c(c2)CCC3)o1	-16%
O=S(=O)(c1ccc(Cl)c(NC(=S)Nc2ccccc2N2CCOCC2)c1)N1CCOCC1	-8%
COc1ccc(NC(=O)c2oc3ccccc3c2NC(=O)c2ccco2)cc1	-18%

High-throughput results as filed in PubChem.
